KSHV LANA nucl – inhibitors of KSHV LANA binding to nucleosomes; FITC-LANA1-23 / chicken nucleosome fluorescence polarization; hits give low values; z-score (concentration not given with the values); hit rate 0.3% among 51,000; AID 720717;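 active = both repeat wells score below -2 in polarization z-score versus plate sample wells, excluding overly bright wells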;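 note: 100 nL library stock added to about 30 µL; numbers are from one replicate; some results filed as inactive read as strong as hits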
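Test system: purified chicken nucleosomes with FITC-labelled LANA N-terminal peptide (1-23); Input: 240 nM purified chicken nucleosomes (480 nM peptide binding sites), final; Medium: TEN-BT buffer, pH 7.5; Timing: 10–45 min, room temperature; Technique: fluorescence polarization, 480 nm excitation, 535 nm parallel and perpendicular emission; Replication: duplicates.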
Ab BasE inh – BasE siderophore biosynthesis inhibition; purified BasE, fluorescence polarization binding displacement; AID 485350; hit rate 0.1% among 84,000; inhibition, % (concentration not given with the values);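 active = both replicates above 25% with normal brightness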;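 note: 0% = negative plate control signal and 100% = positive plate control signal; stock transfer was 100 nL into about 30 µL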
* = called active by the depositor; / = no result given; & = joins results of further samples. This is a subset (hit frequency here may not be typical).

SMILES,Ab BasE inh,KSHV LANA nucl
COC(=O)c1c(COC(=O)c2ccc(Br)o2)nc2ccccc2c1C,0.9,/
COC(=O)c1ccc(Cc2ccccc2)o1,1.9,-0.87
Oc1ccccc1CNc1ccc2c(c1)ncn2C1CCCCC1,1.6,-1.3
COC(=O)c1sccc1OCc1cccc(C(F)(F)F)c1,/,-0.7
O=C(CSc1ncc(-c2ccccc2)n1-c1ccccc1)NC1CCS(=O)(=O)C1 (configuration not stated),-0.7,/
Cc1ccc(C(C)C)cc1S(=O)(=O)Nc1ccccn1,1.4,-0.24
C=C(C)c1cccc(C(C)(C)NC(=O)N2CCN(c3ccc(F)cc3)CC2)c1,5.4,-0.49
CCNc1nc(F)cc(=O)[nH]1,1.8,/
CCOC(=O)CC(C)(O)c1ccccc1 (configuration not stated),0.3,-0.79
COc1ccc2[nH]c(C(=O)O)c(CCC(=O)O)c2c1,0.3,-0.17
Cc1ccc(CNC(=O)CCn2nc(C)c(S(=O)(=O)N3CCCC3)c2C)cc1,0.3,0.62
O=C(Nc1nc2nc(-c3ccccc3)cc(=O)n2[nH]1)c1ccccc1,0.9,-1
N#Cc1ccc(CSC2=Nc3ccccc3C3CC=NN23)cc1 (configuration not stated),-2.5,/
CN=c1scc(-c2ccc(C)c(C)c2)n1/N=C(\C)c1cccnc1,0.7,/
CCOC(=O)c1cc(=O)n2[nH]c(-c3ccc(C)cc3)cc2n1,0.9,-0.28
COc1ccc(Oc2ccc(C#N)cc2)cc1,/,2.4
CNC(=O)c1c(NC(=O)/C=C/c2cccs2)sc(C)c1C,0.3,0.27
COC(=O)c1ccc(C)c(NC(=O)C(NC(C)=O)C(C)C)c1 (configuration not stated),-1.4,/
CN(C)Cc1nc2c([nH]1)c(=O)[nH]c(=O)n2C,0.5,-0.54
COc1ccc(CN(Cc2cccn2C)S(=O)(=O)c2ccccc2)cc1,1.2,/
NC(=S)Cc1ccc(CC(N)=S)o1,6.0,-1.2
CC1=C(C(N)=O)C(c2ccccc2F)NC(=O)N1 (configuration not stated),0.6,-0.069
CC1CCc2ccc(F)cc2N1S(=O)(=O)c1ccc(Cl)s1 (configuration not stated),-2.1,-0.29
CCn1c(=S)sc2c(=O)n3[nH]c(=O)c4ccccc4c3nc21,0.5,0.41
CCOC(=O)Cc1csc(N(C)C)n1,2.0,/
S=C(Nc1ccccc1)Nc1ccccc1-n1cccc1,1.5,/
Cn1ncc2c(c(SCc3ccc(Cl)cc3Cl)nn2C)c1=O,1.2,0.23
O=C(COC(=O)C1CC2CCCC(C1)C2=O)NC1CCS(=O)(=O)C1 (configuration not stated),1.4,/
CCOC(=O)c1c(Nc2nc3ccccc3nc2N2CCN(C(=O)OCC)CC2)sc(C)c1C,-0.5,/
CCNC(=O)COc1ccc(OCc2ccccc2)cc1,5.8,-0.85
COc1ccccc1NS(=O)(=O)c1ccc(C)c(C(=O)N2CCCC2)c1,0.9,/
C=CCn1c(SCCN2CCCCC2)nnc1C1CCCCC1,3.7,/
CN(/N=C/c1ncc(C(F)(F)F)cc1Cl)C(=O)Nc1ccc(Cl)cc1,3.8,/
COC(=O)c1cccc(N2C(=O)c3ccc(C(=O)O)cc3C2=O)c1,-0.5,0.42
CCC(=O)c1ccc(OCC(O)CN2CCN(S(=O)(=O)N3CCCCC3)CC2)cc1 (configuration not stated),4.2,-0.88
Cc1nn(-c2ccccc2)nc1-c1nnc(-c2cccc3ccccc23)o1,-1.9,/
CCOc1ccc(S(=O)(=O)N2CCN(CN3C(=O)CC4(CCCC4)C3=O)CC2)cc1,0.3,/
CCSc1ncnc2c(-c3ccc(OC)cc3)nsc12,3.9,-0.48
C/C(=N\N)c1ccc2[nH]c3c(c2c1)CCC/C3=N\N,-2.8,0.38
O=c1c(N2CCCCC2)csc2ccccc12,0.0,0.54
NCC1NCCc2ccccc21 (configuration not stated),0.0,1.1
O=C(Cn1cnc2c(cnn2-c2ccc(F)cc2)c1=O)NC1CCCC1,2.8,-0.27
O=C(Cc1n[nH]c(=O)[nH]c1=O)N/N=C/c1ccccc1,0.8,1.4
Cc1ccc(S(=O)(=O)NC2CCCC2)cc1,3.5,-0.14
COc1ccc(N(CCC#N)S(=O)(=O)c2ccc(Cl)cc2)cc1,-0.9,0.13
CCC(=O)Nc1ccccc1-c1nnc(SCc2ccccc2)[nH]c1=O,3.2,-0.39
CC(C)Oc1ccc(NC(=O)C2COc3ccccc3O2)cc1 (configuration not stated),-0.4,-1.5
COC(=O)CNC(=O)c1coc2ccccc2c1=O,-0.5,/
CCCCNC(=O)C1CC(=O)N(c2ccc(Cl)cc2)C1 (configuration not stated),-0.2,0.34
CCc1cc2c(cc3c(=O)n(CCCC(=O)NCc4ccccc4)ncn32)s1,-1.4,-0.86
Cc1nnc(Nc2ccc3c(c2)nc2n3CCN(C3CCCCC3)C2)c2ccccc12,0.8,1.9
COc1ccccc1C(CNc1nc(C(F)(F)F)nc2ccccc12)N(C)C (configuration not stated),0.0,/
CCCCCn1cnc2c1c(=O)[nH]c(=O)n2C,-3.0,0.3
COc1ccccc1NNC(=O)c1cccnc1Oc1ccccc1,1.3,0.22
COc1ccc(C(=O)N(c2ccccn2)c2ccccn2)cc1OC,0.1,/
CC(C)(C)C1(C)OC(=O)C(=Cc2ccc(C(=O)O)cc2)C(=O)O1 (configuration not stated),2.8,0.0035
Cc1cccn2cc(-c3cccc(S(=O)(=O)N4CCOCC4)c3)nc12,-1.8,-0.097
O=C(CSc1nc2c(c(=O)[nH]1)CN(Cc1ccc(Cl)cc1)CC2)NCc1ccccc1,1.6,0.85
O=C(O)c1cnc(SCC(=O)N(C2CCCCC2)C2CCS(=O)(=O)C2)n1-c1ccc(F)cc1 (configuration not stated),-0.6,/
CNC(=O)CSc1nnc(C(F)(F)F)n1N,1.3,/

Exported with each value named: 2 of the compounds above.
CNC(=O)CSc1nnc(C(F)(F)F)n1N
- Ab BasE inh: 1.3
- KSHV LANA nucl: /

CCc1cc2c(cc3c(=O)n(CCCC(=O)NCc4ccccc4)ncn32)s1
- Ab BasE inh: -1.4
- KSHV LANA nucl: -0.86

Next section
SMILES,Ab BasE inh,KSHV LANA nucl
Cc1nc(CSCc2ccc(Cl)cc2Cl)cs1,0.9,/
CN(C(=O)COC(=O)c1ccccc1C(=O)N1CCN(c2ccccc2)CC1)c1ccccc1,2.8,/
O=C(c1ccccc1NS(=O)(=O)c1ccc(F)cc1)N1CCN(c2ccccc2F)CC1,1.6,/
Cc1c(NC=O)c(=O)n(-c2ccccc2)n1C,-0.2,0.52
CN(C)c1ccc(-c2cc(-c3ccccc3)c(C#N)c(N)n2)cc1,2.1,-0.23
NC(=Nc1ccccc1)NC(=O)c1nc(Cl)c(N)nc1N,-1.3,0.17&0.14
COC(=O)Cn1c(=N)n(C)c2ccccc21,4.4,/
CCCc1cc(=O)[nH]c(SCC(=O)NC(C)(C)C)n1,-0.9,/
COCCNC(=O)c1cc(Br)c(C)c(C)c1C,1.9,-2.4*
CCCOc1ccc(C(=O)N(C)c2ccccc2)cc1,-0.1,1.2
CC(=O)Oc1ccc2c(=O)c(Oc3ccccc3)coc2c1,1.5,0.36
CCOc1ccc(-n2c(O)c(C=Nc3cc(C)on3)c3ccccc3c2=O)cc1,-0.5,/
Cc1ccc(COC(=O)c2cccn2C)cc1,-0.8,/
O=C1CC(C(=O)N(Cc2ccccc2)c2ccccc2)CN1Cc1ccco1 (configuration not stated),1.2,/
CCOC(=O)N1CCC(NC(=O)c2cc(C(=O)NCC(OC)OC)ccc2CO)CC1,-1.1,0.45
CCC(=O)NC(=S)Nc1cc(-c2nc3ccccc3o2)ccc1OC,-1.7,/
Cn1c(C(C#N)S(=O)(=O)c2ccc(Br)s2)nc2ccccc21 (configuration not stated),2.9,/
CCOC(=O)C1CCN(c2ccccc2CN2CCC(c3ccccc3OC)CC2)CC1,1.6,-0.12
Cc1ccc(N2C(=O)C=CC2=O)cc1,-1.2,/
Clc1nccc2nc(N3CCCC3)ncc12,-0.4,-0.07
CCC(=O)Nc1ccc2nc(C3CC3)n(Cc3ccc(Cl)cc3)c(=O)c2c1,-4.0,2.2
CC(=O)Oc1ccccc1C(=O)Oc1ccc(C#N)cc1,2.3,-2.2
CCOC(=O)C1=C(C)NC(=O)C1,1.3,-0.11
COc1ccc(-n2cnc3cc(C(=O)NCc4ccccn4)ccc32)cc1,4.1,-0.61
COc1cc2c(cc1OC)CN(Cc1cc(=O)n3c(-c4ccccc4)csc3n1)CC2,1.2,/
CCCc1cc(=O)[nH]c(SC/C=C/c2ccccc2)n1,0.3,/
Nc1[nH]c(=O)[nH]c(=O)c1N=Nc1ccc2c(c1)OCCO2,0.2,/
CCc1ccnc(NS(=O)(=O)c2ccc(C)c(Cl)c2)c1,2.5,0.049
Cc1nc(=O)c(-c2ccccc2)c(C)n1Cc1ccccc1,1.6,/
COc1ccc(C(=O)OCC(=O)N2CCCCC2)cc1,0.3,/
CC(C)CNC(=O)c1ccc2c(c1)C(=O)N(C1CCCCC1)C2=O,0.7,0.35
CC1CCCCC1NC(=O)CSc1nncn1N (configuration not stated),1.1,-0.59
Cn1c(=NC(=O)CC2OC(=O)c3ccccc32)sc2ccccc21 (configuration not stated),0.4,/
O=C(/C=C/c1ccc(OC(F)F)cc1)NCc1ccccn1,1.6,/
COc1ccc(OCCCn2c(=O)oc3ccccc32)cc1,-1.8,0
CC(C)(C)c1ccc(C(=O)C(C#N)=C2SCCCS2)cc1,1.1,/
CC1CCN(S(=O)(=O)N2CCCC(C(=O)NCCCN3CCN(c4ccc(F)cc4)CC3)C2)CC1 (configuration not stated),-1.2,-1.1
CC(C)n1nccc1NC(=O)c1cccnc1Sc1ccccc1,0.1,/
CCCCOc1ccc(-c2ncc(N)cn2)cc1,-1.0,0.55
COC(=O)c1ccc(CN2C(=O)NC3(CCCC3)C2=O)cc1,3.8,/
C=CCCC1(C)NNc2nc(=O)c(C)nn21 (configuration not stated),0.2,-0.57
CC(=O)N(CCC(c1ccccc1)c1ccco1)Cc1ccc(N(C)C)cc1 (configuration not stated),0.9,/
CC(C)(C)NC(=O)COc1ncnc2sccc12,0.0,/
COc1ccc2[nH]c3c(OC)ncnc3c2c1,1.1,/
CCCCN(CC)C(=O)C1CCCN(S(=O)(=O)c2cccc3nsnc23)C1 (configuration not stated),1.8,0.15
O=C1CSCC(=O)N1c1ccccc1,/,-0.41
Cc1nnc(SCc2ccccc2)n1N,1.8,0.17
COc1ccc(CN(C(=O)c2ccco2)c2ccccc2)cc1,-0.2,-0.29
Brc1cccc(-c2noc(CCCOc3ccccc3)n2)c1,0.5,0.4
C/C(=N\N1C(=O)c2ccccc2C1=O)C1C(=O)c2ccccc2C1=O,-1.7,-0.3
CC(C)n1nc(C(=O)N2CCc3ccccc32)c2ccccc2c1=O,0.4,/
Cc1cc(=O)n2c3c(cc(S(=O)(=O)NC4CC4)cc13)CCC2,1.0,-0.92
CCc1cc(SC#N)ccc1N,2.0,/
C=CCn1c2c(c(=O)[nH]c1=O)C(c1ccccc1)C1=C(COC1=O)N2 (configuration not stated),3.2,0.33
COc1cc(CC(=O)OC2CCOC2=O)cc(OC)c1OC (configuration not stated),-0.6,/
CCCc1cc(=O)[nH]c(SCc2cc(=O)oc3cc(C)ccc23)n1,2.5,/
O=S(=O)(NC1CCCc2ccccc21)c1ccccc1 (configuration not stated),3.2,/
Cc1cc(S(=O)(=O)Nc2ccc3oc4c(c3c2)CC(C(C)(C)C)CC4)ccc1Cl (configuration not stated),1.8,/
CN(C)CCCOc1nn(Cc2ccccc2)c2ccccc12,-3.6,-0.025&-0.55&0.86
NS(=O)(=O)c1ccc(NC(=O)CC2(CC(=O)O)CCCC2)cc1,1.0,/

No new results follow: entries from further up.
SMILES,Ab BasE inh,KSHV LANA nucl
O=S(=O)(NC1CCCc2ccccc21)c1ccccc1 (configuration not stated),3.2,/
Cc1cc(S(=O)(=O)Nc2ccc3oc4c(c3c2)CC(C(C)(C)C)CC4)ccc1Cl (configuration not stated),1.8,/
CN(C)CCCOc1nn(Cc2ccccc2)c2ccccc12,-3.6,-0.025&-0.55&0.86
NS(=O)(=O)c1ccc(NC(=O)CC2(CC(=O)O)CCCC2)cc1,1.0,/

Later entries:
SMILES,Ab BasE inh,KSHV LANA nucl
Cc1c(C(=O)OC(C)C#N)oc2c1ccc1ccccc12 (configuration not stated),-4.5,/
CCS(=O)(=O)N1CCC(c2nc(-c3ccc(C)cc3)no2)CC1,-1.0,0.11
Cc1ccc2c(c1)NC(CCC(=O)N1CCN(c3cc(Cl)ccc3C)CC1)=NS2(=O)=O,1.0,/
CC(C)(C)C(=O)NC(c1ccc(Cl)cc1)c1nnc(-c2ccccc2)o1 (configuration not stated),0.7,0.37
CC(=O)OCC(=O)Nc1nc2c(C)cc(C)cc2s1,-0.1,/

A draw from above in order of SMILES length, ascending.
SMILES,Ab BasE inh,KSHV LANA nucl
CCS(=O)(=O)N1CCC(c2nc(-c3ccc(C)cc3)no2)CC1,-1.0,0.11
CC(C)(C)C(=O)NC(c1ccc(Cl)cc1)c1nnc(-c2ccccc2)o1 (configuration not stated),0.7,0.37
Cc1ccc2c(c1)NC(CCC(=O)N1CCN(c3cc(Cl)ccc3C)CC1)=NS2(=O)=O,1.0,/
